Mtb bLac sens: beta-lactam sensitization of Mtb H37Rv, H37Rv | M. tuberculosis H37Rv growth with meropenem, percent inhibition; hits of this screen are not shown here | AID 434955, 2010 | inhibition, % at 25 µM | 330,000 compounds, 0.27% hits;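 active = about 74% or more and at least 40 points above the plate without the antibiotic, then above 30% in a dose series; inconclusive = first-round hits that could not be retested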;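 also: growth measured after seven days incubation then overnight dye step; 0% = bacteria only wells and 100% = bacteria with antibiotic; twin plates without the antibiotic show which effects depend on it; some results filed as inactive read as strong as hits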
YopH PTP inh: YopH tyrosine phosphatase inhibitors, primary screen, biochemical, fluorescence Ex485/Em525. YopH tyrosine phosphatase [Yersinia enterocolitica]. inhibition, %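 (about 10 µM by stock and volumes)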. 140,000 compounds, 0.16% hits. AID 898, 2007;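 active = inhibition of 50% or more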;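 also: controls were vehicle for no effect and minimum signal wells for full effect; inactives centre near -20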
RecA splice inh: Mtb RecA intein splicing inhibitors, primary screen, biochemical, fluorescence, HTS | cell-free RecA intein splicing | inhibition, %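 (about 9 µM by stock and volumes)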 | 290,000 compounds, 0.75% hits | Protein RecA (Mycobacterium tuberculosis (strain ATCC 25618 / H37Rv)), P9WHJ3; in the data active = inhibition above about 30%; inconclusive = no clear call, values can overlap the other calls;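 also: 0% = vehicle wells and 100% = reference inhibitor control wells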
Target sequence (P9WHJ3 whole entry, looked up, canonical isoform): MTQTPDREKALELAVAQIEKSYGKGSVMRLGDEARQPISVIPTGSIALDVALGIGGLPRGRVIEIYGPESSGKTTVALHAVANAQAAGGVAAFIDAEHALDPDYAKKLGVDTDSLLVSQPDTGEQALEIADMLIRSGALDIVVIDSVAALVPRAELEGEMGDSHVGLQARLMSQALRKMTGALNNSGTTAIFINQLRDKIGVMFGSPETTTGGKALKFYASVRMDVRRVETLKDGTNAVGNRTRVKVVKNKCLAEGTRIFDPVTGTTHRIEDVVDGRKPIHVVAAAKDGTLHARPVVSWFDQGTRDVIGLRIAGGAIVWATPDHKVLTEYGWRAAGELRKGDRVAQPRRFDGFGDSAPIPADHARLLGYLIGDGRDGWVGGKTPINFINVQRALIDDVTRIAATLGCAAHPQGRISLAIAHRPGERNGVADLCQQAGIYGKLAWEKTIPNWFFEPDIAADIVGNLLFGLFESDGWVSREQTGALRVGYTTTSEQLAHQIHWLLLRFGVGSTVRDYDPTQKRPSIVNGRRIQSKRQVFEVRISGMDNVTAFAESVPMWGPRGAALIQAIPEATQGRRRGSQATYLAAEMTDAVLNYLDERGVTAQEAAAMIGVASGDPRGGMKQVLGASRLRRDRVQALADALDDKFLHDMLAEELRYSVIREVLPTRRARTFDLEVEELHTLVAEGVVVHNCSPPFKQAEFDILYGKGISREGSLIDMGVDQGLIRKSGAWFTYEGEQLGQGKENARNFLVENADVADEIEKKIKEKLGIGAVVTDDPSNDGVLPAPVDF
Arbovirus anti: antivirals against arbovirus infection, primary screen, cell-based, full library, 10K replicate subset | arbovirus infection cell-based antiviral screen | inhibition, % at 10 µM | 200,000 compounds, 0.37% hits;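 active = inhibition from about 30%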;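 also: bluetongue infection of BSR cells; cell survival read as ATP light after 72 h; 0% = infected wells without compound and 100% = uninfected wells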
Mtb growth: M. tuberculosis H37Rv growth inhibitors, H37Rv strain (AID 1626); M. tuberculosis H37Rv growth inhibition; higher % means a stronger effect; inhibition, % at 10 µM; hits with a dose series show IC50 in µM; 220,000 compounds, 0.95% hits;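 active = confirmed in a dose series; inconclusive = inhibition above 80% but not taken into the dose series; inactive = below 80% or under 30% at every dose of the series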;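 also: bacteria incubated seven days before Alamar blue readout; 0% = bacteria only wells and 100% = bacteria with antibiotic wells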
Arbovirus anti repeat: recorded beside Arbovirus anti, whose call it bears; inhibition, %; measured here: 10K subset replicate screen; many hits read low in the repeat;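 first of two repeat runs on a subset; 0% = infected and 100% = uninfected wells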
An asterisk follows results filed as active; ? = inconclusive; . = not tested or not shown.

SMILES	Mtb bLac sens	YopH PTP inh	RecA splice inh	Arbovirus anti	Mtb growth	others
Cn1cc([N+](=O)[O-])c(C(=O)Nc2ccn(Cc3c(F)c(F)cc(F)c3F)n2)n1	.	-21.5	-4.2	-16.6	0.6%
O=C(Cc1ccccc1)NC(Nc1cccc2ccccc12)C(Cl)(Cl)Cl (stereo not given)	0.8	-27.6	-5.0	-0.8	4.3%
COc1ccc(NC(=O)c2cc3ccccc3cc2OC)cc1	87.7	.	-3.0	.	.
Fc1ccc(CNc2nc(-c3cccnc3)nc3ccccc23)cc1	40.0	.	0.2	.	.
CN1CCN(C(=O)CCc2nc3ccccc3n2-c2ccccc2)CC1	-1.5	-28.1	-3.3	4.8	5.0%
CCOC(=O)Cc1nnc(NC(=O)CSc2nnc3c4ccccc4n(C)c3n2)s1	5.0	-9.4	1.4	5.6	-0.9%
O=C(CC1NCCN(Cc2ccccc2)C1=O)Nc1ccc(Cl)cc1 (stereo not given)	-10.7	.	0.6	.	1.1%
COc1ccccc1NC(=O)CSc1nnc(Cc2cccs2)n1C	-10.4	.	2.2	.	.
CCc1cccc(NS(=O)(=O)c2ccc3c(c2)N(C)CCO3)c1	-0.5	.	-1.1	.	.
Cc1nc2nc[nH]n2c(=O)c1CCOC(=O)c1c(F)cccc1F	-6.8	.	3.8	1.1	-1.8%
OCc1ccccc1SSc1ccccc1CO	29.6	.	-6.0	.	.
CCOCCCNS(=O)(=O)c1ccc(NC(=O)c2ccc([N+](=O)[O-])cc2Cl)cc1	-13.0	-12.5	-6.4	1.9	3.3%
O=C(NNC(=O)c1ccc([N+](=O)[O-])cc1C(=O)O)c1ccncc1	99.5	.	-2.3	.	.
O=C(NCCN1C(=O)S/C(=C\c2cccnc2)C1=O)C1=NN(c2ccccc2)C(=O)CC1	-2.9	.	3.6	-5.2	-4.7%
O=C(O)CCCn1cc(NC(=O)c2cccc(F)c2)cn1	-1.6	.	12.5	1.3	1.3%
Cc1sc(N2C(=O)C3C4C=CC(C4)C3C2=O)c(C#N)c1C (stereo not given)	0.9	-6.3	-0.5	9.4	-6.3%
Nn1c(Cc2cccc3ccccc23)nnc1SCC(=O)NCC1CCCO1 (stereo not given)	-0.9	.	-5.0	.	.
Cc1ccccc1C(=O)N1CCC(C(=O)N(C)CC(=O)Nc2cccc(F)c2)CC1	-1.6	.	1.9	.	.
O=C(CCC(=O)OCC(=O)c1ccccc1)Nc1cccc(Cl)c1	1.2	-13.9	-2.2	1.9	-8.9%
CCOc1ccccc1NC(=O)c1csc(C)c1C	18.0	.	3.4	.	.
CCOC(=O)c1ccc(NCc2cccnc2)cc1	76.9	.	-1.5	.	.
CCOC(=O)C1C(=O)NC(c2ccccc2)=NC1c1ccc(O)c(OC)c1 (stereo not given)	-2.5	.	-3.0	4.0	2.5%
CCOC(=O)C1=C(O)/C(=C\c2ccc(CNC(=O)C(=O)Nc3ccccc3)o2)N=C1C	6.3	4.2	1.5	9.5	0.8%
O=C(c1cccc(Cl)c1)C1CCCN(S(=O)(=O)c2ccccc2)C1 (stereo not given)	-5.3	.	10.4	.	.
COc1cc(C(NC(C)=O)NC(C)=O)ccc1OCc1ccccc1	4.3	.	3.3	18.6	7.3%
Cc1cccn2c(=O)c3cc(S(=O)(=O)c4ccccc4)c(=N)n(Cc4ccco4)c3nc12	-10.1	.	-216.5	-10.5	-2.4%
COCCNC(=S)N1CCc2cc(OC)c(OC)cc2C1COc1ccc(C(C)C)cc1 (stereo not given)	-1.5	-16.8	11.7	3.2	3.8%
Cc1c(C#N)c2ccccc2n1CC(=O)N1CCCC1	-7.7	-62.9	2.7	2.8	4.8%
O=C(C[n+]1cccc2ccccc21)c1ccc(NC(=O)c2ccccc2)cc1	15.9	.	0.1	-1.8	11.6%
O=C(OCC1OC(n2ccc(=O)[nH]c2=O)C(O)C1OC(=O)c1ccccc1)c1ccccc1 (stereo not given)	-9.7	-3.6	-0.1	6.9	-6.9%
Cc1ccnc2nc(C(=O)NCCc3ccc(F)cc3)nn12	-5.2	-4.1	2.0	-0.3	-15.3%
Cc1cc(C)cc(OCC(=O)Nc2ccccc2C(=O)NCc2ccco2)c1	6.2	24.9	1.6	-1.3	6.7%
COc1ccc(C(=O)OCC(=O)NCCCc2ccccc2)cc1[N+](=O)[O-]	-6.1	.	-0.7	4.4	0.1%
CSc1ccc(CCNC(=O)CCc2nnc3ccc(N4CCOCC4)nn23)cc1	4.0	.	7.0	.	.
Cc1ccc(CCNC(=O)c2cc(S(=O)(=O)N3CCCC3)cn2C)cc1	0.5	.	1.5	.	.
COc1cc(NC(=O)c2cc(-c3cccnc3)nc3ccc(Br)cc23)cc(OC)c1	94.0	.	2.3	-12.1	15.1%
Cn1c(NNC(=O)CCC2CCCCC2)cc(=O)n(C)c1=O	-3.3	-22.0	-2.2	0.7	-0.6%
C/C(=N\O)C1CC(CC(=O)O)C1(C)C (stereo not given)	-0.3	.	-1.2	.	.
CN1CCCC(C(O)(c2ccccc2)c2ccccc2)C1 (stereo not given)	-0.5	.	-0.7	.	5.9%
COc1ccc2c(c1)c(/C=N/Nc1nc3ccccc3[nH]1)c(C)n2C	93.2	.	24.3	.	?
Cc1cc(C)c(O)c(-c2n[nH]c3c2C(c2cccc(O)c2)N(Cc2ccco2)C3=O)c1 (stereo not given)	2.1	.	3.3	.	.
O=S(=O)(c1cccc(-c2cn3ccccc3n2)c1)N1CCCCC1	4.7	.	0.6	.	.
Cc1ccc(S(=O)(=O)NN2C(=O)/C(=C/c3cccnc3)SC2=S)cc1	0.4	.	7.0	.	.
CCOc1ccccc1C1C(C(N)=O)=C(C)Nc2nc(CCCO)nn21 (stereo not given)	2.4	-34.7	-1.4	-0.3	-6.1%	Arbovirus anti repeat=-1.8
Cc1ccc(Cn2ccc(NC(=O)c3nn(C)cc3Cl)n2)cc1	0.8	-39.5	1.9	1.3	1.5%
Cc1nc(-c2ccc3c(c2)OCCO3)cs1	-0.7	.	0.8	8.4	7.2%
O=C(Nc1nc2ccccc2s1)C1CCN(C(=O)c2ccco2)CC1	-5.0	.	0.0	.	.
COc1ccc(NC(=O)c2cc(CC(C)C)on2)cc1OC	-0.6	-24.6	0.2	-24.2	5.9%

Molecules above with a cyano group:
SMILES	Mtb bLac sens	YopH PTP inh	RecA splice inh	Arbovirus anti	Mtb growth	others
Cc1sc(N2C(=O)C3C4C=CC(C4)C3C2=O)c(C#N)c1C (stereo not given)	0.9	-6.3	-0.5	9.4	-6.3%
Cc1c(C#N)c2ccccc2n1CC(=O)N1CCCC1	-7.7	-62.9	2.7	2.8	4.8%

(continued)
SMILES	Mtb bLac sens	YopH PTP inh	RecA splice inh	Arbovirus anti	Mtb growth	others
O=C(c1ccco1)N1CCN(c2cccc(Cl)c2)CC1	6.4	-26.6	2.9	-11.5	1.8%
CS(=O)(=O)N1CCN(C(=N)N[N+](=O)[O-])CC1	-2.7	.	-2.8	7.7	-9.6%
Cc1ccc(-c2nc(CS(=O)CC(=O)NCCCN3CCN(Cc4ccccc4)CC3)c(C)o2)cc1 (stereo not given)	-0.9	.	-1.3	.	.
CC1CCC2(CC1)NC(=O)N(CC(=O)c1ccc3c(c1)OCO3)C2=O (stereo not given)	-1.4	.	-0.7	.	.
COc1cc(/C(=C/c2ccccc2)c2ccccc2)c2c(c1)oc1ccccc12	-5.3	.	-0.3	.	.
Cc1cc(C)c(C)c(S(=O)(=O)N2CCN(C(=S)NCC3CCCO3)CC2)c1C (stereo not given)	9.4	.	1.9	-0.5	9.9%
COc1ccc(C2OCC3(O)C(c4ccc(OC)c(OC)c4)OCC23)cc1OC (stereo not given)	4.7	.	1.2	.	15.5%
Cn1cccc1Cc1nnc(SCC(=O)NCc2ccccc2)n1-c1ccc(F)cc1	0.9	-39.8	0.9	5.0	-4.3%	Arbovirus anti repeat=-0.4
CCc1ccc(N(CC(=O)Nc2ccc(NC(C)=O)cc2)S(=O)(=O)c2ccccc2)cc1	-4.2	-15.5	1.5	7.5	6.2%
O=C(CO/N=C/c1ccc(OC(F)F)cc1)NCc1ccco1	6.2	.	2.7	-2.8	-6.0%
Cc1[nH]c2ccc(-c3nnc(SCC(=O)NCc4ccco4)n3Cc3ccccc3)cc2c1C	67.4	-14.0	13.3	-26.6	7.2%
Cn1c(NCCCN2CCOCC2)nc2c1c(=O)n(Cc1ccc(Cl)c(Cl)c1)c(=O)n2C	2.7	-25.6	5.3	-35.0	10.6%

Reprinted at random: 7 compounds from above, in no set order.
SMILES	Mtb bLac sens	YopH PTP inh	RecA splice inh	Arbovirus anti	Mtb growth	others
CCc1ccc(N(CC(=O)Nc2ccc(NC(C)=O)cc2)S(=O)(=O)c2ccccc2)cc1	-4.2	-15.5	1.5	7.5	6.2%
Cc1cc(C)c(C)c(S(=O)(=O)N2CCN(C(=S)NCC3CCCO3)CC2)c1C (stereo not given)	9.4	.	1.9	-0.5	9.9%
Cn1c(NCCCN2CCOCC2)nc2c1c(=O)n(Cc1ccc(Cl)c(Cl)c1)c(=O)n2C	2.7	-25.6	5.3	-35.0	10.6%
CS(=O)(=O)N1CCN(C(=N)N[N+](=O)[O-])CC1	-2.7	.	-2.8	7.7	-9.6%
COc1ccc(C2OCC3(O)C(c4ccc(OC)c(OC)c4)OCC23)cc1OC (stereo not given)	4.7	.	1.2	.	15.5%
Cc1[nH]c2ccc(-c3nnc(SCC(=O)NCc4ccco4)n3Cc3ccccc3)cc2c1C	67.4	-14.0	13.3	-26.6	7.2%
COc1cc(/C(=C/c2ccccc2)c2ccccc2)c2c(c1)oc1ccccc12	-5.3	.	-0.3	.	.

(cont.)
SMILES	Mtb bLac sens	YopH PTP inh	RecA splice inh	Arbovirus anti	Mtb growth	others
CCOc1ccccc1NC(=S)NC(=O)C1CCCCC1	98.3	.	11.3	.	.
O=S(=O)(c1ccc(N2CCN(CCO)CC2)nc1)N1CCCCC1	5.6	-0.4	.	8.8	-7.3%
CN(C)c1nc(NCc2ccccc2)nc(Oc2ccc(=O)[nH]n2)n1	-2.4	-24.2	-0.8	2.1	2.5%
CCCCC(CCC(=O)O)(C(=O)OCC)c1csc(N)n1 (stereo not given)	-11.6	-42.5	-1.1	9.7	3.1%
O=C(NCC1CCCO1)c1cc(-c2ccncc2)nc2ccc(S(=O)(=O)N3CCOCC3)cc12 (stereo not given)	-14.6	-29.0	-1.5	2.9	-17.9%
COc1cc(Cl)ccc1OCc1cc(C(=O)N2CC[C@@H]3CCCC[C@H]3C2)no1	5.4	.	8.4	.	.
CCOC(=O)CN(C(=O)Cn1nnc(-c2ccc(C)cc2)n1)C(CC)C(=O)NC1CCCC1 (stereo not given)	-13.5	5.9	3.4	0.7	-11.4%
CCOC(=O)CCS(=O)(=O)c1nc(-c2ccccc2)cc(C(F)(F)F)n1	100.2	-16.5	78.3*	-7.9	-6.8%
CCOC(=O)C1=C(c2ccccc2)N=C2SCC(=O)N2C1c1cccc(OC)c1 (stereo not given)	-8.3	-20.0	5.2	0.7	-0.5%
CC(=O)c1nnn(-c2ccc([N+](=O)[O-])cc2)c1C	-3.1	.	-0.8	3.2	-0.3%
O=C(NNc1ccc(C(F)(F)F)cc1[N+](=O)[O-])c1ccc(NS(=O)(=O)c2ccc(F)cc2)cc1	16.5	-22.9	1.6	2.1	7.2%
Cc1ccc(NC(=O)Cn2nnc(C(=O)Nc3ccc(F)c(Cl)c3)c2N)cc1	2.9	.	0.0	.	.
COc1cccc(/C=N/NC(=O)CNC(=O)CCc2ccccc2)c1O	32.0	.	-3.5	.	-6.6%
COc1cc(NC(=O)c2cccs2)c(C(=O)OCC(=O)NCc2ccccc2)cc1OC	-0.2	-18.4	-4.2	-27.7	-6.4%
O=[N+]([O-])c1ccc(Cl)cc1NCc1cccnc1	-5.2	.	4.6	.	.
Cc1ccc(N2C(=O)[C@@H]3C(c4cccnc4)=NO[C@@H]3C2=O)cc1	-4.8	.	-0.3	.	-2.6%
CCOc1ccccc1N(CC(=O)NCC1CCCO1)C(=O)CCC(=O)Nc1nccs1 (stereo not given)	4.7	.	1.2	.	.
COc1ccc(NC(=O)CN(C)C(=O)c2cc3c(s2)CCC3)cc1	2.0	.	1.5	.	.

Bioassay records deposited in PubChem by several laboratories.

A portion of the library; the hit share may differ from the screen's.
